# CtBP-E1A blk: blocks the CtBP interaction with E1A; activity change, % (test concentration not listed); 340,000 compounds, 0.49% hits; AlphaScreen GST-E1A/His-CtBP binding, 1536-well; active compounds read low; control for the full effect not named in the record; AID 651724; in the data active means activity change below about -65%; inconclusive means about -30% to -65%; inactive means above about -30%; note: % is set by controls: 0 for no effect and ±100 for the full control effect
#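 In 5 uL wells, 23 nL compound meets equimolar GST-E1A and His-CtBP (5X stock 125 nM each) for 2 h, 37 °C. Beads (5X, 50 ug/mL) then 1 h, 37 °C, dark.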
# TRPV1 potentiator: human TRPV1 potentiation; Q8NER1; 320,000 compounds, 0.02% hits; TRPV1-expressing cells, Fluo-8 calcium influx, capsaicin EC20 potentiation; host cell line not named in the record; control for the full effect not named in the record; potentiation, % at 8.33 µM; active means potentiation above 80%; inconclusive means 30% to 80%; inactive means below 30%; note: 0% is about no effect
# Target sequence (Q8NER1 whole entry, looked up): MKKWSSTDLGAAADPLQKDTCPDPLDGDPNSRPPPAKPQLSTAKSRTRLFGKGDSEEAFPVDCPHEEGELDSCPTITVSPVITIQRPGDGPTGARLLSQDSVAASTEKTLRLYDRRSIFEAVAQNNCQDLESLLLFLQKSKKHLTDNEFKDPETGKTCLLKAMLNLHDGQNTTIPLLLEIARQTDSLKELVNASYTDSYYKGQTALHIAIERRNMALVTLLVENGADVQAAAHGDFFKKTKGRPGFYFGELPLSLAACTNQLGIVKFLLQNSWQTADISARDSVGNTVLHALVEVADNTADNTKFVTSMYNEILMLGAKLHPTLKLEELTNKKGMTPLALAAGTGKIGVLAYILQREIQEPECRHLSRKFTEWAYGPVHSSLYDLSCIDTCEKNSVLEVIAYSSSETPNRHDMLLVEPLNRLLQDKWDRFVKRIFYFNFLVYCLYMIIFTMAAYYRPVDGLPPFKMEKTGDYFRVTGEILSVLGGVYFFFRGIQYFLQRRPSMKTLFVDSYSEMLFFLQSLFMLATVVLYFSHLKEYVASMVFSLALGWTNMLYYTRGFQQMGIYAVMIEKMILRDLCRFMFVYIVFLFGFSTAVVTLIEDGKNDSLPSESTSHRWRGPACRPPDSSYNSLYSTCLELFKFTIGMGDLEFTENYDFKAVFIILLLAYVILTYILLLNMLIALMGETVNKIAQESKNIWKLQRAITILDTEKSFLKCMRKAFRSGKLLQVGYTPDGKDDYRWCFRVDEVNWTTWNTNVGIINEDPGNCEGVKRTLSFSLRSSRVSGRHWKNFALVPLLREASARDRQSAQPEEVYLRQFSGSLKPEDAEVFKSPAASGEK
#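 Cells expressing TRPV1 were dye-loaded with Fluo-8 and read kinetically: 10 s baseline, 3 min after compound (agonist portion), then 2 min after EC20 capsaicin (allosteric enhancer portion). Calcium-bound dye fluorescence at 480/520 nm.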
# gsp antag: gsp mutant antagonism | gsp-mutant cells, cAMP HTRF, 30 min; control for the full effect not named in the record | Potency, µM (doses to about 76.9 µM), inactives show at the highest dose activity change, negative = inhibition, actives largely listed as inhibitors | 340,000 compounds, 0.4% hits | AID 624288; active = falling curve of any shape with a large fitted effect; inconclusive = falling curve, mostly with a smaller effect; inactive = flat or rising curve; cell line not stated here;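 note: intracellular cAMP measured with PDE inhibitor Ro 20-1724 present during compound exposure; potency is the fitted concentration of half-maximal effect; % is set by controls: 0 for no effect and ±100 for the full control effect; nearly all actives have a fitted effect of over 65% in size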
#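 HTRF cAMP read-out (cAMP-d2 plus anti-cAMP antibody-K in lysis buffer, 30 min RT). Before lysis, cells are exposed to compounds with […] for 30 min at 37C in DPBS containing Ca/Mg, BSA and Tween 20.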
# gsp ag: gsp mutant agonism; gsp mutant cells, cAMP HTRF, 30 min; control for the full effect not named in the record; Potency, µM (titrated, usually from 76.9 µM), for the others: at the top dose activation (cAMP increase), most hits filed as activators; 340,000 compounds, 0.13% hits; AID 624287; active = well fitted activation curve with a large enough effect; inconclusive = small, poorly fitted or top-dose-only effect, or another doubt; inactive = no such curve, though single readings can be large or run the other way; cell line not stated here;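 note: phosphodiesterase inhibitor Ro 20-1724 added with compounds to block cAMP breakdown; potency is the fitted concentration of half-maximal effect; nearly all actives have a fitted effect of over 60% in size; about a fifth of the inactives were tested at one dose only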
#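 Cells stably selected in G418 were plated at 2000/well, grown 16-24 hr, then given compounds in DMSO with the PDE inhibitor […] (300 uM solution added) for 30 min at 37C; cAMP was read by HTRF.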
# Sfp inh: Sfp phosphopantetheinyl transferase inhibition; 310,000 compounds, 3.5% hits; AID 1490; Potency, µM, without a hit: max response, negative = inhibition, actives largely listed as inhibitors; Biochemical Sfp PPTase activity, qHTS; Q9F4F7; active = well fitted inhibition curve with a large enough effect; inconclusive = small, poorly fitted or top-dose-only effect, or another doubt; inactive = no such curve, though single readings can be large or run the other way;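 note: the enzyme is Sfp with the accession as filed and its product quenches rhodamine fluorescence; potency is the fitted concentration of half-maximal effect; 0% = enzyme reaction without inhibitor and -100% = no enzyme wells; top concentration of the series not given in the record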
#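 After 15 min at room temperature with compound, 15 nM Sfp received 5 uM rhodamine-CoA plus 12.5 uM BHQ-2-ybbR (50 mM Hepes pH 7.6, 10 mM MgCl2). Rate came from the fluorescence difference over 30 min, ex 525/em 598 nm.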
# ClpP mod: qHTS Assay for Activators of ClpP | AID 651965, 2013 | ATP-dependent Clp protease proteolytic subunit (Bacillus subtilis (strain 168)), P80244 | purified B. subtilis ClpP, FRET peptide cleavage, 20 min | 340,000 compounds, 1.9% hits | Potency, µM (series often up to 57.5 µM), inactives show at the top dose activity change, negative = active; active = well fitted falling curve with a large enough effect; inconclusive = small, poorly fitted or top-dose-only effect; inactive = no such curve, though single readings can be large or run the other way; note: potency is the fitted concentration of half-maximal effect; the source files actives as falling curves though it sought activators and does not explain the sign; nearly all actives have a fitted effect of over 65% in size; many hits overshoot -100%
# Target sequence (P80244 whole entry, looked up): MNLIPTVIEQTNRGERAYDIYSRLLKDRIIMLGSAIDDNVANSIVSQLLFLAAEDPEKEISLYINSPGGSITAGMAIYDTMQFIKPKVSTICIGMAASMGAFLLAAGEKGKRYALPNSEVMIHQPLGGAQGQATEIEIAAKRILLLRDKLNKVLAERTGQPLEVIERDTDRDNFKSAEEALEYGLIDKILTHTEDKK
#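 Buffer: 100 mM Tris/HCl pH8, 100 mM KCl, 0.05% low protease BSA, 2.5% glycerol, 0.01% Tween-20. ClpP 10 microg/mL final; 20 min RT; delta FRET normalized to ADEP and DMSO controls.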
# Menin MLL FP FL: inhibitors of human menin-MLL interaction, wild-type MLL peptide; Fluorescence polarization, fluorescein-MLL peptide displacement from menin; FP activity change, % at 61.4 µM; 290,000 tested, under 10 active; AID 1766; inconclusive = falling polarisation curve, or a change in total fluorescence; inactive = total fluorescence flat and polarisation flat or rising; no compound was filed as active; the % refers to the polarisation; negative = inhibition;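 note: % of control where 0% means no effect; inhibitors lower the polarisation; unlabelled MLL peptide was the positive control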
# Starred values were filed as active, the others as inactive; ? = inconclusive; . = no result given; [ ] = dose if it differs, or a comment.
molecule	TRPV1 potentiator	gsp ag	gsp antag	Menin MLL FP FL	CtBP-E1A blk	Sfp inh	ClpP mod
O=C(CC1CCCCC1)NCc1cn2ccsc2n1	-0.4	0.0%	8.0%	1.0	-0.9	16.6%	0.8%
Cc1ccc2cc(CN(Cc3ccco3)C(=O)c3ccccc3)c(=O)[nH]c2c1C	-19.8	-40.5%[inhibitor]	4.0%	1.9	-1.5	6.8%	-19.3%
O=Cc1ccc(N2CCCCCC2)cc1	5.2	13.5%	-1.0%	2.7	9.9	-6.3%	-0.4%
CC1CCC(NC(=O)C2CCC(CNS(=O)(=O)c3ccccc3)CC2)CC1 (configuration not stated)	3.2	6.6%	4.2%	4.0	8.6	9.5%	-2.8%
CCC(=O)N(CCC(c1ccc(C)cc1)c1ccco1)Cc1ccco1 (configuration not stated)	.	0.9%[15.4 µM]	-7.2%	5.0	-4.8	?	.
O=C(CCC(=O)N1CCN(Cc2ccc(F)cc2)CC1)Nc1nnc(C2CCCCC2)s1	-12.3	?	3.9%	.	0.5	2.5%	1.6%
CC(C)c1nc2ccccc2n1CC(O)COC1CCCCC1 (configuration not stated)	-11.1	8.8%[15.4 µM]	-12.6%	-3.8	0.3	5.4%	.
C=CCN(CC=C)Cc1c(C)[nH]c2ccc(C(=O)OCC)cc2c1=O	0.9	6.3%	14.2%	2.6	-5.8	-4.9%	28.2µM*
Cc1noc(C)c1COc1ccc(C(=O)Nc2ccccc2)cc1	-28.1	0.5%	1.2%	0.6	-1.3	10.9%	1.4%
COC(=O)c1ccc(NC(=O)Nc2ccccc2F)cc1	-7.7	?	-0.9%	0.4	4.0	10.1%	.
O=C(CC12CC3CC(CC(C3)C1)C2)NC(=S)Nc1ccc(CN2CCOCC2)cc1	0.7	-17.7%	-2.1%	1.6	2.3	18.9%	.
Cc1nc2ccccc2c(=O)n1NC(=O)c1ccc(Cl)cc1	-1.1	-10.1%	-1.2%	-0.7	.	6.4%	-3.9%
COC(=O)c1ccc(CSc2nnc3sc4ccccc4n23)o1	3.7	6.5%	-5.3%	1.4	-3.0	-0.5%	-1.2%
COc1ccccc1N1CCN(CCCCCCOc2ccc(F)cc2)CC1	-0.8	0.3%	3.5%	0.7	-5.5	-4.3%	-1.5%
C[C@H](CO)N1C[C@H](C)[C@H](CN(C)C(=O)Nc2ccc(C(C)(C)C)cc2)OCc2cnnn2CCCC1=O	.	?	.	.	-28.0	.	-2.2%
CC(=O)OC(C(=O)NCc1ccco1)c1cccnc1 (configuration not stated)	5.5	-35.9%[inhibitor]	-0.1%	3.9	2.5	-8.2%	-1.6%
CCOc1ccc(Oc2cc(C)nc(SC)n2)nn1	6.7	-2.2%	6.5%	-1.6	6.7	-2.5%	0.9%
Cc1c(C(=O)NCc2ccc3c(c2)OCO3)sc2nc(-c3ccccc3)cn12	.	-41.6%	2.5%	-2.1	-3.9	11.9%	1.4%
CC(C)(C)NC(=O)CN(C(=O)CSc1nnc(COc2ccccc2)o1)c1cccc(F)c1	16.2	1.6%	-13.2%	3.4	-4.6	10.9%	-0.6%
COc1ccc(CCNC(=O)c2sc(=S)n(C)c2N)cc1	0.9	-0.3%	-3.3%	0.7	2.5	?	-20.9%
CCCn1c(=O)c2ccccc2n2c(SCC(=O)/C(C#N)=C(\C)N)nnc12	-2.6	-38.3%[inhibitor]	4.8%	0.6	14.4	6.8%	-0.4%
CCN(CC)C(=O)CSc1nc(O)cc(=O)n1-c1ccccc1OC	-0.6	5.5%	-6.6%	5.1	-15.1	-5.0%	-1.6%
CC(C)c1ccc(NC(=O)c2ccc(NC3=NC4CS(=O)(=O)CC4S3)cc2)cc1 (configuration not stated)	-29.1	5.3%	-1.7%	-5.9	2.5	2.4%	-0.7%
Cc1ccsc1CN(C)C(=O)CCc1nnc(COc2ccccc2)o1	-4.7	10.5%[15.4 µM]	1.4%	2.5	2.9	8.5%	.
CCOC(=O)N1CCN(C(=O)C(NS(=O)(=O)c2cccc3nsnc23)c2ccccc2)CC1 (configuration not stated)	7.3	-30.8%	-2.4%	3.6	4.4	0.1%	-3.6%

molecule	TRPV1 potentiator	gsp ag	gsp antag	Menin MLL FP FL	CtBP-E1A blk	Sfp inh	ClpP mod
COc1ccc(CN2C(=O)c3cccnc3C2=O)cc1S(=O)(=O)N1CCOc2ccc(C)cc21	?	?	-21.8%	.	.	16.1%	1.4%
Cc1ccc(C(=O)N2CCC(C(=O)NC3CCCC3)CC2)cc1	5.4	?	-5.7%	.	-1.1	2.3%	.
O=C(CNS(=O)(=O)c1ccccc1)OCC(=O)c1ccc(OC(=O)c2ccccc2)cc1	-11.7	-1.3%	-10.9%	1.4	10.9	14.1%	-0.7%
COc1ccc(Cn2cnc3c([N+](=O)[O-])c(C)c(C)cc32)cc1	.	0.6%	-5.3%	2.0	-1.8	-0.2%	-5.0%
CCC(=O)N1CCc2cc(OC)c(OC)cc2C1COc1ccccc1OC (configuration not stated)	-1.4	-0.6%[15.4 µM]	4.2%	1.9	-2.1	6.5%	-4.4%
Nc1ccn([C@@H]2O[C@H](CNCc3cnc(N4CCOCC4)nc3)[C@@H](O)[C@H]2O)c(=O)n1	.	12.2%	.	.	4.2	.	-4.9%
Cc1ccccc1OCc1nc2ccccc2c(=O)n1N	-0.1	14.8%	4.8%	3.1	2.3	1.7%	-6.0%
CC(C)CC(=O)Nc1nc2ccc(S(=O)(=O)N3CCOCC3)cc2s1	1.5	-5.8%	15.2%	2.7	3.8	1.9%	-0.7%
Cc1ccc(C(=O)N/N=C\c2ccc3c(c2)OCO3)cn1	25.1	4.4%[15.4 µM]	3.2%	-1.5	-2.9	16.0%	.
Cn1c(=O)c(Nc2ccc(O)cc2)c2c3c(cccc31)C(=O)c1ccccc1-2	-10.2	14.2%	0.0%	?	-73.3*	-17.1%	-0.7%
COC(=O)c1ccc(N2CCOCC2)c(NC(=O)c2ccc3c(c2)OCCO3)c1	4.5	13.1%	11.3%	.	11.1	6.6%	0.0%
CC1c2nc3ccccc3n2C(CC(=O)NC2CC2)C(=O)N1Cc1ccccc1 (configuration not stated)	-8.9	?	0.7%	-0.1	1.3	12.8%	-2.4%
O=C(CN1C(=O)c2ccccc2S1(=O)=O)N1CCN(c2cccc(Cl)c2)CC1	.	-6.3%	?	.	0.4	.	0.9%
CC12CC3OC3CC1CCC1C2CCC2(C)C1CCC21OCCO1 (configuration not stated)	.	0.1%	7.7%	.	-16.6	.	-2.8%
C=CCOC(=O)C1=C(C)NC(C)=C(C(=O)OCC=C)C1c1ccc(C)o1	-11.7	-17.1%[15.4 µM]	-13.7%	1.9	1.0	19.9%	-10.3%
O=C(NCCCN1CCOCC1)c1ccccc1NS(=O)(=O)c1ccc(Br)cc1	-4.1	16.3%[15.4 µM]	.	-3.9	2.2	16.6%	.
COC(=O)CCc1c(C)c(C(=O)c2ccco2)c2ccccn12	14.1	?	25.1%	-1.0	-17.7	4.1%	-5.6%
CCOc1ccccc1NC(=O)C1CCCN(S(=O)(=O)c2cccc3cccnc23)C1 (configuration not stated)	8.9	-5.7%	-13.5%	-0.4	0.9	13.2%	0.7%
CS(=O)(=O)c1ccc(NC(=O)CCN2C(=O)C3CCCCC3C2=O)cc1 (configuration not stated)	-7.9	?	3.7%	.	0.4	.	-0.5%
NC(=O)C1CCN(CCC(=O)Nc2ccc(Br)cc2)CC1	26.8	-70.2%[inhibitor]	3.7%	-2.3	-10.2	19.7%	-2.9%
CN(CC(=O)Nc1ccc(F)cc1)C(=O)Cn1c(=O)oc2ccccc21	-4.0	16.9%	2.3%	.	5.6	.	1.5%
CC1(C)CC(=O)N(c2cccc(Cl)c2)C(=O)C1	?	0.5%	4.5%	5.8	2.2	19.0%	0.2%
O=C(O)/C=C/C(=O)Nc1ccc(S(=O)(=O)N2CCCC2)cc1	4.7	5.9%	-12.3%	0.2	.	-27.0%	-2.1%
O=C(CC1CCCCC1)NCc1ccc(Cl)cc1	-4.4	6.0%[15.4 µM]	1.4%	6.4	1.7	-4.6%	-2.3%
Cc1cc(NC(=O)Nc2cc(Cl)sc2Cl)no1	6.9	5.7%[15.4 µM]	-1.3%	-5.3	-3.4	2.1%	0.2%

molecule	TRPV1 potentiator	gsp ag	gsp antag	Menin MLL FP FL	CtBP-E1A blk	Sfp inh	ClpP mod
C/C=C/C=N/NC(=O)CN(c1ccc(Br)cc1)S(=O)(=O)c1ccccc1	-1.1	7.9%	-11.2%	.	2.6	10.8%	-1.2%
O=C(CCCOC(=O)c1ccc(O)cc1O)c1ccc(Br)cc1	7.4	-6.0%	-15.5%	.	3.6	.	2.4%
CCCCOc1ccc(C(=O)NCC(=O)N2CC=C(c3ccccc3)CC2)cc1	13.0	3.6%[15.4 µM]	4.0%	.	0.1	.	.
Cc1cc(C)nc(SCC(N)=O)n1	-6.3	22.1%[15.4 µM]	14.2%	5.4	9.2	-0.1%	.
CN1CCN(C(=O)c2ccccc2NC(=O)c2ccc(C(C)(C)C)cc2)CC1	16.9	0.2%[15.4 µM]	4.3%	.	-1.4	-7.2%	0.5%
COc1ccc(Cl)cc1CSc1n[nH]c(C)n1	-0.7	-29.7%	-3.7%	-0.8	1.2	9.9%	-3.3%
CC1(C)CC(=O)c2cnc(NC3CC3)nc2C1	4.3	-2.3%	1.8%	-0.8	-2.9	21.6%	-6.3%
C=CCNc1nc(SCC=C)nc2ccsc12	-4.8	-2.6%	6.4%	2.1	1.4	3.1%	1.4%
C/C(=N\OC(=O)c1ccc(Cl)cc1)c1sc(-c2ccccc2)nc1C	6.2	-37.3%[inhibitor]	8.6%	1.8	-0.2	16.2%	15.3%
O=Cc1c(N2CCCCCC2)nc2ccccn2c1=O	2.3	?	9.9%	3.8	-0.8	5.7%	-0.7%
CCOc1ccc(N(CC(=O)NCc2ccco2)S(=O)(=O)c2ccc(OC)c(OC)c2)cc1	13.2	0.5%	6.4%	3.1	12.2	-17.4%	-1.1%
